2A firefly = Primary qHTS Assay for Foot and Mouth Disease Virus Antivirals against NCGC Sytravon and CBC Compound Libraries: Firefly Luciferase Signal | HEK cells with a luciferase reporter of 2A StopGo recoding | Potency, µM (series often up to 57.5 µM), for inactives: at the top dose signal change, negative = less light | 120,000 compounds, 0.23% hits; active = well fitted falling curve with a large enough effect; inconclusive = small, poorly fitted or top-dose-only effect; inactive = no such curve, though single readings can be large or run the other way; further: nearly all actives have a fitted effect of over 60% in size; overnight with compound
2A Renilla = Primary qHTS Assay for Foot and Mouth Disease Virus Antivirals against NCGC Sytravon and CBC Compound Libraries: Renilla Luciferase Signal; 120,000 compounds, 0.32% hits; Potency, µM (highest dose often 57.5 µM), for inactives: at the top dose signal change, negative = less light; AID 1745857, 2022; HEK cells with a luciferase reporter of 2A StopGo recoding; active means well fitted falling curve with a large enough effect; inconclusive means small, poorly fitted or top-dose-only effect; inactive means no such curve, though single readings can be large or run the other way; further: nearly all actives have a fitted effect of over 55% in size; overnight with compound
* hit, by the source's call; ? = inconclusive; [ ] = dose if it differs, or a comment. On the % scale 0 is the no-effect control and ±100 the full control effect; potency means the concentration at half of the fitted maximal effect.

The first 14 records (preview)
SMILES	2A firefly	2A Renilla
COc1cc(OC)cc(C(=O)NCc2n[nH]c(=O)c3ccccc23)c1	-9%	-5%
CCN1CCN(C(=O)COc2ccc3c(=O)c(-c4ccc(OC)cc4)c(C)oc3c2)CC1	40%[activator]	-11%
CC(C(=O)NC(C)(C)C)N1CCC(C(=O)NCc2ccco2)CC1 (stereo not given)	-12%	-19%
Cc1ccc(NC(=O)c2ccc(COc3ccccc3Cl)o2)cc1	18%	-8%
CCC(C)C(=O)NCc1cccc(COC)c1 (stereo not given)	24%	15%
Fc1ccc(-c2noc(CSc3nc4ccccc4o3)n2)cc1	-6%	-20%
O=C(c1ccc(F)cc1)N(Cc1cccs1)c1ccc(F)cc1	19%	39%[activator]
O=c1n(Cc2ccc(F)cc2)nc2n1-c1cc(Cl)ccc1OC2	2%	-1%
O=C(Nc1cccc(F)c1)Nc1c(NC2CCCCC2)c2ccccc2oc1=O	8%	2%
Cc1ccc(CC(=O)N(C)CC(=O)N(CC(C)C)c2c(N)n(CC(C)C)c(=O)[nH]c2=O)cc1C	-9%	-11%
Cc1ccc(C)c(N=Cc2ccc([N+](=O)[O-])cc2)c1	16%	0%
CCOc1ccccc1NC(=O)Cn1c(=O)n(CCCCC(=O)NCCCOC)c(=O)c2ccccc21	-3%	3%
CCCCCC/C=N/NC(=O)c1cccc2ccccc12	0%	57%[activator]
CCCCn1c(CNC(=O)C23CC4CC(CC(C4)C2)C3)nnc1SCC(=O)Nc1ccc(F)cc1	-33%	12%

Results, repeating the preview:
SMILES	2A firefly	2A Renilla
COc1cc(OC)cc(C(=O)NCc2n[nH]c(=O)c3ccccc23)c1	-9%	-5%
CCN1CCN(C(=O)COc2ccc3c(=O)c(-c4ccc(OC)cc4)c(C)oc3c2)CC1	40%[activator]	-11%
CC(C(=O)NC(C)(C)C)N1CCC(C(=O)NCc2ccco2)CC1 (stereo not given)	-12%	-19%
Cc1ccc(NC(=O)c2ccc(COc3ccccc3Cl)o2)cc1	18%	-8%
CCC(C)C(=O)NCc1cccc(COC)c1 (stereo not given)	24%	15%
Fc1ccc(-c2noc(CSc3nc4ccccc4o3)n2)cc1	-6%	-20%
O=C(c1ccc(F)cc1)N(Cc1cccs1)c1ccc(F)cc1	19%	39%[activator]
O=c1n(Cc2ccc(F)cc2)nc2n1-c1cc(Cl)ccc1OC2	2%	-1%
O=C(Nc1cccc(F)c1)Nc1c(NC2CCCCC2)c2ccccc2oc1=O	8%	2%
Cc1ccc(CC(=O)N(C)CC(=O)N(CC(C)C)c2c(N)n(CC(C)C)c(=O)[nH]c2=O)cc1C	-9%	-11%
Cc1ccc(C)c(N=Cc2ccc([N+](=O)[O-])cc2)c1	16%	0%
CCOc1ccccc1NC(=O)Cn1c(=O)n(CCCCC(=O)NCCCOC)c(=O)c2ccccc21	-3%	3%
CCCCCC/C=N/NC(=O)c1cccc2ccccc12	0%	57%[activator]
CCCCn1c(CNC(=O)C23CC4CC(CC(C4)C2)C3)nnc1SCC(=O)Nc1ccc(F)cc1	-33%	12%
Cc1cccc(NC(=O)CN(C)S(=O)(=O)c2cnc[nH]2)c1C	-9%	-6%
CC(C)CNc1nc2ccccc2nc1S(=O)(=O)Cc1ccc(Cl)cc1	135%[activator]	0%
CSc1ccc(/C=C/C(=O)c2ccc(NC(=O)c3ccccc3)cc2)cc1	0%	64%[activator]
Cc1oc2cc(OC(=O)c3ccccc3)ccc2c(=O)c1-c1ccccc1	-3%	-9%
O=C(Cn1c(=O)oc2cc(S(=O)(=O)NCc3ccccc3)ccc21)NCc1ccc(F)cc1	?	153%[activator]
CCCn1c(N(C)Cc2ccccc2)nc2c1c(=O)n(C)c(=O)n2C	14µM*	?
CCn1nc(C(=O)OC(C)C(N)=O)c2ccccc2c1=O (stereo not given)	-4%	1%
Cc1nc2cccnc2n1C1CCN(C(=O)Nc2ccccc2)CC1	19%	-15%
CC(C)N(C)S(=O)(=O)c1cccc(C(=O)Nc2cccc3ncccc23)c1	?	?
Cn1c(=O)n(C)c2cc(SCc3ccco3)c(NC(=O)c3ccc(Cl)cc3)cc21	-20%	?
Cc1c(Cl)cccc1NC(=O)CC(c1cccs1)N1Cc2ccccc2C1=O (stereo not given)	?	72%[activator]
The listing continues:
SMILES	2A firefly	2A Renilla
COc1ccc(OCCN2CCN(C(=O)c3cc(C4CC4)nc4ccccc34)CC2)cc1	-30%	-17%
COC(=O)c1nc2n(n1)C(c1cc(OC)ccc1OC)C=C(c1ccc(Br)cc1)N2 (stereo not given)	4%	4%
COc1cccc(-c2noc(COc3ccc4ccc(=O)oc4c3)n2)c1	41%[activator]	-5%
CC(=O)c1ccc(N2CCN(CC(=O)Nc3ccnn3Cc3cccc(Cl)c3)CC2)c(F)c1	-23%	39%[activator]
CCOC(=O)Cn1c(=O)oc2cc(S(=O)(=O)N3CCN(c4ccc(C(C)=O)cc4)CC3)ccc21	0%	-8%
Cn1c(C(=O)N2CCN(S(=O)(=O)c3cccs3)CC2)cc2ccccc21	-14%	-4%
CCN(CCC(=O)Nc1ccccc1C#N)Cc1ccco1	-18%	-10%
CCOC(=O)c1noc2ncnc(N3CCN(c4cccc(C(F)(F)F)c4)CC3)c12	-11%	32%[activator]
Cc1cccc(NC(=O)c2oc3ccccc3c2NC(=O)Cc2coc3c(C)c(C)ccc23)c1	4%	-4%
COc1cc(/C=C/c2nc3cc(Cl)ccc3c(=O)n2-c2ccc(C)cc2C)cc(OC)c1OC	-21%	57%[activator]
CCOC(=O)c1cccc(NC(=O)CCS(=O)(=O)c2ccc(Br)s2)c1	-3%	0%
CCCCn1c(=O)[nH]c(=O)c2c1nc(CN1CCN(S(=O)(=O)c3ccc(C)cc3)CC1)n2CC	-7%	-3%
N#Cc1ccc(COc2ccc(C#N)cc2)cc1	79%[activator]	16%
Cc1ccc2nc(NC(=O)c3ccc(S(=O)(=O)N4CCC(C)CC4)cc3)sc2c1	15%	7%
O=C(CCCn1c(=O)oc2ccccc21)Nc1cccc(-c2nnc3n2CCCCC3)c1	12%	12%
Cc1ccc(C(=O)COC(=O)c2cc(C)nc3c(C)cccc23)cc1	1%	2%
N#Cc1c[nH]n2c(=O)cc(CSc3nnc(-c4ccccc4F)n3C3CC3)nc12	4%	-11%
COc1ccc(-c2nc(P(=O)(OC)OC)c(NCc3cccnc3)o2)cc1	5%	11%
CCOC(=O)Cn1c(=O)c2c3c(sc2n(CCCN(C)C)c1=O)CC(C)CC3 (stereo not given)	?	?
O=C(Nc1ccccc1-c1nc2ccccc2s1)c1ccc(F)cc1	-13%	-9%
CCCC(C)NC(=O)CN(c1ccccc1OC)S(C)(=O)=O (stereo not given)	-7%	-7%
Cc1ccc(-n2nc(C(=O)N3CCN(c4cc(C)ccc4C)CC3)c3c4ccccc4n(C)c3c2=O)cc1	-23%	-21%
COc1ccc(NC(=O)C2CCCN(S(=O)(=O)c3ccc(Br)s3)C2)cc1 (stereo not given)	5%	3%
CCOc1ccc(C2C(=O)N(C3CCCCC3)CC(=O)N2Cc2ccccc2OC)cc1OC (stereo not given)	-21%	-3%
O=C(NC1CCCCCC1)c1cccc(Oc2ccccc2)c1	70%[activator]	-25%
Continued.
SMILES	2A firefly	2A Renilla
CC1CCCN(CC2CCCN2)C1 (stereo not given)	6%	5%
CC1Cc2cc(S(N)(=O)=O)ccc2N1CC(=O)Nc1cccc(Cl)c1Cl (stereo not given)	3%	32%[activator]
COc1ccc(C(=O)Oc2ccc(/C=C(\C#N)c3nc4ccccc4[nH]3)cc2)cc1	41%[activator]	-8%
CCOC(=O)c1ncoc1-c1ccccc1C(=O)N1CCN(c2ccccc2F)CC1	?	?
CCCN1CCN(c2nnc(-n3cccc3C(=O)Nc3cc(Cl)ccc3C)s2)CC1	-5%	-6%
CSc1ccc(C2CC(=O)Oc3c2c(=O)n(C)c2ccccc32)cc1 (stereo not given)	4%	60%[activator]
COc1ccc(C(=O)Nc2ccc(NS(=O)(=O)c3ccc4c(c3)OCCCO4)cc2)cc1	39%	215%[activator]
CCN1CCN(Cc2cc(=O)oc3c(C)cc(C)cc23)CC1	-12%	-15%
CC(N)C12CC3CC(CC(C3)C1)C2 (stereo not given)	-23%	-13%
Cc1cc(NC(=O)Cc2ccc(Cl)cc2Cl)n(CCC#N)n1	12%	-11%
CCOCCCNc1nc2c(c(=O)[nH]c(=O)n2C)n1CCOCC	16%	14%
Cc1ccc(NC(=O)CSc2nc(=O)n(CCN3CCOCC3)c3c2CCC3)cc1Cl	-16%	-6%
COc1ccc2c(C)c(CCC(=O)Nc3ccccc3F)c(=O)oc2c1	25%	25%
Cc1nc(-c2cccs2)c(CC(=O)N2CCN(c3cccc(Cl)c3)CC2)s1	-18%	-24%
CCN(CC)c1ccc(NC(=O)c2cc(S(N)(=O)=O)ccc2C)cc1	39%	2%
Cc1ccc(N2C(=O)CS(=O)(=O)C23C(=O)N(Cc2ccccc2F)c2ccccc23)cc1Cl (stereo not given)	-2%	1%
CC(Sc1ncnc2ccccc12)C(=O)NC1CCCC1 (stereo not given)	-5%	-1%[1.06 µM]
Cc1ccc2c(c1)N(C(=O)CCC(=O)NCc1cccs1)CCO2	-13%	-7%
CCOC(=O)c1c(Nc2ccc(OC)cc2)nnc(-c2ccccc2)c1-c1ccccc1	-17%	-7%
Cc1nc2cc(NC(=O)CC3(C(=O)O)CCCC3)ccc2o1	8%	-7%
COP(=S)(OC)Oc1ccc(S(=O)(=O)N(C)C)cc1	-21%	-16%
COc1ccc(C(=O)NCCn2cc(SCC(=O)Nc3ccc4c(c3)OCCO4)c3ccccc32)cc1OC	14%	11%
COC(=O)c1ccc(OC(=O)c2cc(OC)cc(OC)c2)cc1	-2%	5%
CCCCN(C)c1nnc(NC(=O)Nc2cccc(C(C)=O)c2)s1	12%	-4%
Cc1nc2cc(F)ccc2cc1C(=O)N1CCN(S(=O)(=O)c2ccc(C#N)cc2)CC1	7%	-4%
Carrying on:
SMILES	2A firefly	2A Renilla
NCc1cc(Br)ccc1OC(F)F	0%	6%
CC(NS(=O)(=O)c1cccc2nsnc12)c1ccccc1 (stereo not given)	1%	24%
CC(=O)N1c2ccc(S(=O)(=O)NCC3CCC(C(=O)Nc4cccc(C)c4)CC3)cc2CC1C (stereo not given)	-12%	32%[activator]
COc1ccc(C)cc1NS(=O)(=O)c1cnc(N)nc1	-13%	4%
Cc1ccc2nc(/C(C#N)=C/c3ccccc3OCc3ccc(Cl)cc3Cl)[nH]c2c1	142%[activator]	2%
O=C(Nc1ncn[nH]1)c1cccc(S(=O)(=O)N2CCCCCC2)c1	10%	9%
Cc1oc(-c2nc(C#N)c(N(C)C)o2)cc1S(=O)(=O)N(Cc1ccccc1)C(C)C	15%	4%
CCOc1cc(CNC(=O)c2ccc(Cn3c(=O)c4cccn4c4cccnc43)cc2)ccc1OC	-6%	0%
CCOc1ccc(C(=O)NCCS(=O)(=O)N2CCN(c3cccc(Cl)c3)CC2)cc1	-18%	2%
O=C(O)C(c1c[nH]c2ccc(Cl)cc12)N1CCN(Cc2ccccc2)CC1 (stereo not given)	0%	-5%
Cc1nc2c(c(C)c1CCC(=O)Nc1ccc(F)cc1)c(=O)n(C)c(=O)n2C	-5%	-8%
Fc1ccc(CSc2ncccn2)cc1	52%[activator]	0%
CCc1ccccc1NC(=O)CCCN1C(=O)COc2ccc(C)cc21	0%	-14%
CCCC12CN3CC(CCC)(CN(C1)C3c1c[nH]c3ccccc13)C2=O (stereo not given)	15%	9%
CC(C)COc1ccc(-c2nonc2NC(=O)c2ccc(F)cc2)cc1	-16%	17%
COc1ccc(S(=O)(=O)N2CCC(C(=O)Nc3cccc(C)c3)CC2)c2cccnc12	-3%	1%
O=C(NCc1cccc(C(F)(F)F)c1)N1CCc2sccc2C1	0%	0%
N#Cc1cccc(OCc2cccc3cccnc23)c1	0%	-2%[1.06 µM]
COc1ccc(CCNC(=O)Cn2c(=O)nc(-c3ccccc3)c3cc(Cl)ccc32)cc1OC	-18%	-8%
CC(C)(C)NC(=O)CSc1ncc(-c2cccc(Br)c2)o1	197%[activator]	-20%
CC1(c2ccc3c(c2)CCC3)NC(=O)N(Cc2coc(-c3cccs3)n2)C1=O (stereo not given)	2%	15%
CCCC(=O)OC1=C(C(C)=O)N(Cc2ccccc2)S(=O)(=O)c2ccccc21	0%	-12%
Cc1ccc2[nH]c(CSc3nnc(NC(=O)COc4ccccc4Cl)s3)cc(=O)c2c1	-10%	-10%
CCc1ccc(CNC(=O)c2ccc(CSc3nc4ccncc4n3Cc3ccc(OC)cc3)cc2)cc1	-8%	-1%
CCOC(=O)c1ccc2ncc(C(=O)OCC)c(NCCc3ccc(OC)c(OC)c3)c2c1	23%	-10%
Remaining list, next part
SMILES	2A firefly	2A Renilla
Cc1ccccc1N=Cc1ccc(N(C)C)cc1	10%	-13%
CC1=C(C(=O)c2ccc(Cl)cc2)C(c2ccccc2)NC(=O)N1 (stereo not given)	13%	95%[activator]
O=C(NCc1ccc2c(c1)OCO2)c1cccc2c1C(=O)N(C1CCCCC1)C2	-6%	-7%
CN(C)C1(CNC(=O)Cc2c[nH]c3ccccc23)CCCCCC1	-10%	-19%
c1cn(CCCNCc2ccc(-n3ccnc3)cc2)cn1	11%	-3%
Cc1ccc(C)c(Oc2coc3cc(OC(=O)C(C)C)ccc3c2=O)c1	10%	16%
COc1ccc(NC(=O)CN(C)S(=O)(=O)c2ccc3nc(C)sc3c2)cc1	-2%	4%
CN(CC(=O)Nc1ccc2c(c1)OC1(CCCC1)O2)S(=O)(=O)c1cccs1	30%	3%
CCOC(=O)c1ccc(NC(=O)CCc2c(C)nc3c(c(C)nn3-c3ccccc3)c2C)cc1	-17%	-13%

Source: PubChem BioAssay (National Center for Advancing Translational Sciences (NCATS))

A portion of the library; count on the stated rates, not on these rows.
